PABP FP inh: PABP-poly(A) binding inhibition. P11940. PABP-poly(A) RNA binding, fluorescence polarization. inhibition, % at 35 µM. 1% of 290,000 active;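 active = 50% or more with normal probe brightness, or confirmed in later tests; inconclusive = above 50% with abnormal brightness, or retests that disagree; inactive = below 50% or failed in later tests; about a fifth of its hits are not listed in these tables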;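 note: calls also rest on retests at 20 µM and on dose response follow-up; controls were probe without protein and protein plus probe with vehicle; some compounds called inactive have numbers as strong as hits; many hits fall short of the cut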
Target sequence (P11940 whole entry, looked up): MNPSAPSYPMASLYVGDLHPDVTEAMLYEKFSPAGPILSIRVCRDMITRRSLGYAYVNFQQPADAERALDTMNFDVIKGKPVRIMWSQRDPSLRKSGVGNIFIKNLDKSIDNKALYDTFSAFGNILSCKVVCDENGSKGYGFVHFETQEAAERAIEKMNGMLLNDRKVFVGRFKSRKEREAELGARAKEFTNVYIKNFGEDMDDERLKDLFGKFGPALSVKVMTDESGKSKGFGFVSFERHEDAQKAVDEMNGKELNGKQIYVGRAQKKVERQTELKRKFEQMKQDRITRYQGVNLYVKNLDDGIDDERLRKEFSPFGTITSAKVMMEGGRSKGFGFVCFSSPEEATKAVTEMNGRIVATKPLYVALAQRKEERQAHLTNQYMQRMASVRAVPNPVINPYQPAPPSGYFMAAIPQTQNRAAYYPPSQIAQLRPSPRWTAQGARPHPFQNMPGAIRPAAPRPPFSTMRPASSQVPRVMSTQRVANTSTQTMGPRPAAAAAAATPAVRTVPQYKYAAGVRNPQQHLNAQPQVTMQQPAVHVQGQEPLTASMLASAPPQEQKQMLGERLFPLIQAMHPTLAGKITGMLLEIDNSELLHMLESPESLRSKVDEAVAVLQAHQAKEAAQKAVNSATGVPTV
Env fusion inh: HIV envelope-mediated fusion inhibition; HeLa-JRFL Env/CEM21 cell fusion, luciferase; inhibition, % at 12.3 µM; 1.1% of 360,000 active;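 active = mean replicate inhibition score of at least 50 and every replicate individually at or above 50; inconclusive = only one of the two criteria met; inactive = mean below 50 and not all replicates reaching 50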;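 note: 0% = plate neutral controls and 100% = maraviroc near 300 nM; one replicate is shown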
eIF4H inh: inhibitors of RNA binding by human eIF4H; inhibition, % at 35 µM; 0.94% of 290,000 active; AID 2012; eIF4H fluorescence polarization binding assay;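 active = 50% or more with normal probe brightness, or confirmed in later tests; inconclusive = above 50% with abnormal brightness, or retests that disagree; inactive = below 50% or failed in later tests; about a fifth of its hits are not listed in these tables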;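 note: calls also rest on retests at 20 µM and on dose response follow-up; 0% = protein and probe with vehicle and 100% = probe without protein; strong numbers were not always called active; many hits fall short of the cut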
CSC inhib: cancer stem cell inhibition; cancer stem cell-like cells viability, luminescence; 1.1% of 300,000 active; inhibition, % at 7.5 µM;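 active = mean at 75% or more and at least half the replicates too; inconclusive = mean and replicates disagree; tested in HMLE shEcad cells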;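 note: 0% = median of negative and 100% = median of positive control wells; the first replicate is given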
MT1-MMP act inh: blocks activation of human MT1-MMP; AID 651647; HT1080 RFP-PRO-GFP cells, GFP/RFP ratio fluorescence, overnight; percent of plate control window, DMSO zero; GFP/RFP ratio change, % at 20 µM; 0.061% of 360,000 active;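 active = GFP/RFP ratio change of at least 30% with cell ATP level not reduced by more than half and red fluorescence within 50% of control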; note: strong numbers were not always called active
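Assay system: HT1080 RFP-PRO-GFP cells. Benchmarks: DMSO vehicle wells and RFP-L50D-GFP reporter cell wells. Times: overnight cell settling, then overnight compound exposure, 37 °C, 5% CO2. Compound: 20 µM single dose, 1% DMSO. Read-out basis: GFP/RFP fluorescence ratio.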
Rce1 inhib: yeast Ras-converting enzyme inhibition; yeast membranes, quenched prenylated peptide cleavage fluorescence; calls only; 0.27% of 290,000 active;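 active = fall in fluorescence gain of 50% or more versus controls, with final raw signal at or below 3038400; inconclusive = same 50% fall but final raw signal above 3038400; inactive = fall in fluorescence gain under 50%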;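 note: plate controls were neutral control wells for no effect and wells lacking membranes for full effect; tested at 10 µM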
Target sequence (Q03530 whole entry, looked up): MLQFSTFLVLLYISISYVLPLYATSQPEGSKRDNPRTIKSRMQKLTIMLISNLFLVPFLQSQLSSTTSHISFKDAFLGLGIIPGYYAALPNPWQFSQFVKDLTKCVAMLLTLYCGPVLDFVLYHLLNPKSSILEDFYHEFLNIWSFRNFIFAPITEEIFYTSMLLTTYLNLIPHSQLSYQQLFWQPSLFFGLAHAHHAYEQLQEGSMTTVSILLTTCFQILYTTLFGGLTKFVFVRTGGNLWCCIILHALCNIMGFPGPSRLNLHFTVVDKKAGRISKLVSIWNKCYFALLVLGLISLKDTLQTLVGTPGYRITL
Yeast UUG start: yeast start codon fidelity modulation; S. cerevisiae UUG-firefly luciferase reporter, luminescence/redox ratio; activity score, % at 18.7 µM; 0.13% of 350,000 active;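 active = replicate mean at a twofold rise or more, about +100% in these data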;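 note: firefly luciferase made from a UUG start codon reports start codon fidelity; reporter light over untreated wells divided by growth signal over untreated wells; some hits fall short of that in this replicate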
MT1-MMP act inh RFP: recorded beside MT1-MMP act inh, whose call it bears; RFP signal change, %; measured here: RFP expression control read;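 0 = vehicle wells; hits needed this value within 50% of zero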
Active calls of the source: *; i = inactive; ? = inconclusive; / = not tested or not shown; & = joins results of further samples; [ ] = another dose, or the depositor's remark.

mol	PABP FP inh	Env fusion inh	eIF4H inh	CSC inhib	MT1-MMP act inh	MT1-MMP act inh RFP	Rce1 inhib	Yeast UUG start
N#Cc1nc(Cc2ccccc2)oc1NCCN1CCOCC1	-6	/	5	0	1	-1	i	-11
CCCN(CCC)CCNC(=O)C(NS(=O)(=O)c1ccc2c(c1)CCC(=O)N2)c1ccccc1 (stereo not drawn)	-3	/	-5	-3	-4	0	i	/
CCOC(=O)c1ccc(NC(=O)CSc2nnc(Cn3c(=O)sc4ccccc43)n2C)cc1	-14	-16	-21	-15	-4	2	i	7
O=C(O)CCn1c(SCc2cc(=O)n3ccccc3n2)nc2ccsc2c1=O	1	23	4	7	-6	5	/	/
O=C1NC(Cc2c[nH]c3ccccc23)C(=O)N1Cc1cccc2ccccc12 (stereo not drawn)	-15	41	-4	5	9	9	i	-12
O=C(Nc1ccc(N2CCOCC2)cc1)c1cc2c(s1)CCCC2	-3	-22	-4	18	5	-6	i	/
COc1ccccc1NS(=O)(=O)c1cccc(C(=O)N/N=C/c2ccc(NC(C)=O)cc2)c1	-15	-10	-11	16	0	1	i	/
COc1ccccc1-c1c(C)nn2c(N3CCN(Cc4ccccc4)CC3)cc(C)nc12	4	13	-6	22	1	-10	i	-12
COc1ccc(C(=O)Nc2c(C(C)(C)C)nn(C)c2C(C)(C)C)cc1	-6	0	-1	-4	-12	-7	i	-20
Cc1ccc(N2C(=O)c3ccccc3C2Nc2ccccc2)nc1 (stereo not drawn)	-2	/	-3	13	0	-5	i	-19
COc1ccc(CNC(=O)CN(C2CCCCC2)S(C)(=O)=O)cc1	-16	-16	-4	-9	2	1	i	-22
Cc1nn(-c2ccccc2)c(Cl)c1/C=N/NC(=O)c1ccnn1C	12	-76	-10	-5	-2	2	i	-12
Cc1cccc(-n2c(CCc3ccccc3)nnc2SCC(=O)c2ccccc2)c1	6	/	5	-13	-9	-6	i	-5
O=C(O)CCCC(=O)Nc1ccccc1Br	10	/	11	-1	1	8	i	-14
COc1ccc(C2(CNC(=O)c3ccc(OC)c([N+](=O)[O-])c3)CCOCC2)cc1OC	2	31	2	-7	-2	5	i	-8
COc1cc(OC)cc(-c2nnc(NC(=O)Cc3ccc(F)cc3)o2)c1	-9	-3	2	7	2	-2	i	-9
COCC(=O)N(C)C1(c2nnnn2CCOC(=O)Nc2ccc(Cl)cc2)CCCC1	-9	-24	-3	-2	4	1	i	13
CC(=O)N1CCOc2ccc(S(=O)(=O)N3CCC(C(=O)Nc4cc(C)ccc4C)CC3)cc21	-5	5	-5	-37	5	-5	i	-12
Cc1cccc(CN2CCN(c3nc4nonc4nc3NC3CC3)CC2=O)c1	-9	15	8	-16	3	6	i	/
CCOC(=O)Nc1cccc(Cl)c1C	0	-55	8	-1	0	-2	i	-22

Three compounds already listed, arranged by the value under Env fusion inh, descending:
| canonical_smiles | Env fusion inh | MT1-MMP act inh | MT1-MMP act inh RFP | Rce1 inhib | Yeast UUG start |
| --- | --- | --- | --- | --- | --- |
| O=C1NC(Cc2c[nH]c3ccccc23)C(=O)N1Cc1cccc2ccccc12 (stereo not drawn) | 41 | 9 | 9 | i | -12 |
| COc1ccccc1-c1c(C)nn2c(N3CCN(Cc4ccccc4)CC3)cc(C)nc12 | 13 | 1 | -10 | i | -12 |
| CC(=O)N1CCOc2ccc(S(=O)(=O)N3CCC(C(=O)Nc4cc(C)ccc4C)CC3)cc21 | 5 | 5 | -5 | i | -12 |

Remaining list, next part
mol	PABP FP inh	Env fusion inh	eIF4H inh	CSC inhib	MT1-MMP act inh	MT1-MMP act inh RFP	Rce1 inhib	Yeast UUG start
CCn1c(SCC(=O)Nc2cc(OC)ccc2OC)nnc1C1CCCCC1	21	17	-6	4	-1	-3	i	-11
Cc1c(C(=O)NCc2ccco2)cccc1[N+](=O)[O-]	-3	2	10	-7	6	5	i	/
Cc1ccc(CNC(=O)C2CCN(S(=O)(=O)c3cccs3)CC2)cc1	-3	1	-9	-7	-2	-1	i	-20
O=C(/C=C/Nc1ccccc1)c1ccccc1	5	/	1	/	-5	3	i	-49
O=C(Nc1nnc(SCC(=O)N2CCOCC2)s1)C1CC(=O)N(c2ccccc2)C1 (stereo not drawn)	9	5	-11	/	/	/	i	-14
CC1CC(C)CN(c2nc3c(c(=O)n(C)c(=O)n3C)n2CCSc2ncccn2)C1 (stereo not drawn)	-2	-5	0	-8	3	3	i	-7
COc1cc2c(cc1OC)C(c1ccccc1)N(C(=O)c1cccc(S(C)(=O)=O)c1)CC2 (stereo not drawn)	3	-70	-14	6	-3	-1	i	/
CC(=O)c1cccc(NS(=O)(=O)c2cc(-c3cnc(C4CC4)o3)ccc2C)c1	-12	18	0	?	-5	-18	i	-17
COc1ccc(CNC(=O)COC(=O)C2CC2C)cc1OC (stereo not drawn)	/	22	/	-13	-3	-5	i	1
Cc1ccc(S(=O)(=O)Nc2ccc(C(OC(=O)c3ccccc3[N+](=O)[O-])(C(F)(F)F)C(F)(F)F)cc2)cc1	-8	/	-3	107*	-14	-20	i	-2
c1ccc2c(Nc3nc(N4CCOCC4)c4ccccc4n3)cccc2c1	3	21	-7	3	-9	-16	i	/
CCN(CC)c1ccc(C=Nc2cc(C)cc(C)c2)c(O)c1	12	-3	17	3	2	6	i	/
CCOc1cc(NC(=O)C2CCCO2)c(OCC)cc1NC(=O)C1CC1 (stereo not drawn)	-4	-22	5	-7	2	3	i	-9
CN(CCc1ccccc1)C(=O)CC1C(=O)NCCN1Cc1ccccn1 (stereo not drawn)	/	3	/	/	-2	-1	/	-2
Cc1ccc(NC(=O)C2CC(=O)N(C(C)c3ccccc3)C2)cc1 (stereo not drawn)	/	/	/	-1	1	-1	/	0
CC1CCN(S(=O)(=O)c2cccc(S(=O)(=O)N3CCOCC3)c2)CC1	-2	-1	6	3	6	-3	i	-3
CC(=O)NC(CCS(C)(=O)=O)C(=O)Nc1cc(Cl)ccc1Cl (stereo not drawn)	-8	-11	4	-13	-1	2	i	6
COCCNC(=O)C(=O)NCC1OCCN1S(=O)(=O)c1ccc2c(c1)OCCO2 (stereo not drawn)	-4	-25	-12	-20	2	1	/	/
Cc1ccc(S(=O)(=O)/N=C(\N)c2ccc(F)cc2)cc1	-9	7	0	-2	6	-2	i	-12
O=c1cc(-c2ccccc2)[nH]c2[nH]n(-c3ccccc3)c(=O)c12	8	-30	-3	-7	8	-1	i	-12
COc1ccc(C(=O)COC(=O)c2cc3ccccc3oc2=O)c(OC)c1	/	-4	/	-2	2	-1	/	/
CCNc1sc(C(=O)OCC)c(N)c1C#N	1	-9	1	-9	4	4	i	/
O=C1CCC(C(=O)OC(C(=O)Nc2cc(Cl)cc(Cl)c2)c2ccccc2)=NN1 (stereo not drawn)	/	8	/	-12	7	-1	/	-8
COCCn1c(-c2ccc3ccccc3c2)nc2c1c(=O)[nH]c(=O)n2CC(C)C	-8	9	2	-9	-6	-7	i	-18
COc1ccc(CCNCC(O)Cn2ccc3ccccc32)cc1OC (stereo not drawn)	-2	-13	-2	-3	-1	-4	i	-12
CCOc1ccccc1/C=N/NC(=O)c1cccc(Cl)c1	-8	3	-5	-6	1	1	i	/
O=C(NCc1ccco1)C(c1ccccc1)N(Cc1ccccc1)C(=O)Cn1nnc2ccccc21 (stereo not drawn)	-1	-260	-9	-4	2	-2	i	10
Nc1ccc(Br)cc1C(=O)O	-6	-13	-1	-1	2	3	i	-1
Cc1ccccc1-c1nc(S(=O)(=O)c2ccccc2)c(NCCN2CCOCC2)o1	/	59*	/	/	-6	3	/	-8
CCOc1ccc(C2C(C#N)=C(N)Oc3cc(C)n(CCN4CCOCC4)c(=O)c32)cc1OCC (stereo not drawn)	-8	/	-6	/	3	3	/	-5
Cn1nccc1NC(=O)CSCC(=O)O	-2	1	-3	-5	1	3	i	/
CN(C)c1nc2c(c(=O)n(C)c(=O)n2C)n1Cc1ccccc1	5	-64	-9	-1	-12	0	i	-11
CCOc1ccc(Nc2nc(Cl)nc(N3CCN(c4ccc(OC)cc4)CC3)n2)cc1	8	-13	-6	9	-3	-8	i	/
Cc1noc(C)c1NC(=O)Nc1ccc2c(c1)C(=O)N([C@H](C)CO)C[C@H](C)[C@@H](CN(C)S(=O)(=O)c1ccccc1)O2	/	-6[16.7 µM]	/	/	5	5	/	2&10
CCc1nc(SCC(=O)Nc2cc(C)on2)n[nH]1	1	/	-13	-11	2	1	i	-24
c1cnc2ccc(C(c3nnnn3C3CCCCC3)N3CCCCC3)cc2c1 (stereo not drawn)	-2	105*	-4	-7	-5	-4	i	-8
O=C(Oc1cccc(C(=S)N2CCCCC2)c1)c1ccccc1	-6	-12	-16	-4	-5	5	i	-15
O=C(c1ccco1)N(Cc1cc2ccccc2[nH]c1=O)CC1CCCO1 (stereo not drawn)	-3	/	-4	0	1	-1	i	/
CCCCCC(=O)NC(=S)Nc1ccccc1C(=O)OC	13	-31	-6	-8	-2	-10	i	-4
CC(=O)OC[C@H]1O[C@@H](O/N=C(\C)CCN2CCCCc3nc(C)c(C)cc32)[C@H](OC(C)=O)[C@@H](OC(C)=O)[C@@H]1OC(C)=O	2	/	16	-7	/	/	i	/
CC1CCN(c2ccccc2NC(=O)c2cc([N+](=O)[O-])ccc2N2CCOCC2)CC1	6	60*	-6	-13	-9	-22	i	-16
Cc1ccc2[nH]c(=O)cc(C(=O)OCC(=O)c3ccc(F)cc3)c2c1	4	-4	3	0	0	0	i	-24
Cc1cc(=O)n2nc(N3CCCC(C(=O)N4CCN(c5ccccc5)CC4)C3)sc2n1 (stereo not drawn)	15	/	3	6	-1	2	i	-1
CC(NC(=O)c1ccccc1Br)c1nnc(SCc2ccc([N+](=O)[O-])cc2)n1C (stereo not drawn)	-4	/	-8	-14	-1	-1	i	/
COc1cccc(CNc2ccc(S(=O)(=O)N3CCCC3)cn2)c1	/	/	/	7	1	-6	/	11
O=C(COc1ccc(C(=O)c2ccccc2)cc1)NCc1ccc(F)cc1	14	?	0	0	1	-10	i	/
Cc1ccc(-n2cc(CN3CCN(Cc4nccn4C)CC3)c(-c3ccc(F)cc3)n2)cc1	-5	-2	6	1	-2	-7	i	-5
COCCCNc1nc2ccccc2nc1NS(=O)(=O)c1cccs1	8	-16	6	-4	4	-4	i	-9
Cn1c(=O)cc(SCC(=O)NCCCN2CCN(c3ccc(F)cc3)CC2)c2ccccc21	9	4	1	-7	6	4	i	/

Screens from PubChem BioAssay.

An excerpt. The share of hits here may be higher or lower than overall.
